Source: PubChem (National Center for Advancing Translational Sciences (NCATS))
Sfp PPTase inh: Sfp phosphopantetheinyl transferase inhibition | Q9F4F7 | Biochemical Sfp PPTase activity, qHTS | Potency, µM, without a hit: max response, negative = inhibition, usual class: inhibitors | 310,000 compounds, 3.5% hits; active = well fitted inhibition curve with a large enough effect; inconclusive = small, poorly fitted or top-dose-only effect, or another doubt; inactive = no such curve, though single readings can be large or run the other way;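 note: the enzyme is Sfp with the accession as filed and its product quenches rhodamine fluorescence; potency is the fitted concentration of half-maximal effect; 0% = enzyme reaction without inhibitor and -100% = no enzyme wells; top concentration of the series not given in the record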
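Fluorescence-quenching assay with 15 nM Sfp, 5 uM rhodamine-CoA and 12.5 uM BHQ-2-labelled ybbR peptide in pH 7.6 Hepes/MgCl2 buffer. Enzyme was pre-incubated with compound for 15 min at room temperature. Rate was taken from the 30-min fluorescence change (525/598 nm).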
ClpP mod: qHTS Assay for Activators of ClpP. ATP-dependent Clp protease proteolytic subunit (Bacillus subtilis (strain 168)), P80244. purified B. subtilis ClpP, FRET peptide cleavage, 20 min. Potency, µM (top dose mostly 57.5 µM), for inactives: at the top dose activity change, negative = active. 340,000 compounds, 1.9% hits. AID 651965, 2013; active = well fitted falling curve with a large enough effect; inconclusive = small, poorly fitted or top-dose-only effect; inactive = no such curve, though single readings can be large or run the other way; note: potency is the fitted concentration of half-maximal effect; the source files actives as falling curves though it sought activators and does not explain the sign; nearly all actives have a fitted effect of over 65% in size; many hits overshoot -100%
Target sequence (P80244 whole entry, looked up): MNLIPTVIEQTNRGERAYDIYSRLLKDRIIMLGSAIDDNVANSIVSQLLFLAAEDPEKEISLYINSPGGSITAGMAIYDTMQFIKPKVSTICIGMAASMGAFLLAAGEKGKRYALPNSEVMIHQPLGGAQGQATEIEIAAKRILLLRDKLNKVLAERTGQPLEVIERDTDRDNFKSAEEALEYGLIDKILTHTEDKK
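Buffer: 100 mM Tris/HCl pH8, 100 mM KCl, 0.05% low protease BSA, 2.5% glycerol, 0.01% Tween-20. ClpP 10 microg/mL final; 20 min RT; delta FRET normalized to ADEP and DMSO controls.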
TRPML1 agonist: activates the human TRPML1 channel | Q9GZU1 | TRPML1-expressing cells, Ca2+ dye fluorescence, FDSS; host cell line not named in the record; reference of the full effect not given here | activation, % (no concentration beside the values) | 410,000 compounds, 0.12% hits; in the data active = activation above about 50%; inconclusive = about 30% to 50%; inactive = below about 30%; note: 0% is about no effect; the text of the record puts the active cut at 80%
Target sequence (Q9GZU1 whole entry, looked up): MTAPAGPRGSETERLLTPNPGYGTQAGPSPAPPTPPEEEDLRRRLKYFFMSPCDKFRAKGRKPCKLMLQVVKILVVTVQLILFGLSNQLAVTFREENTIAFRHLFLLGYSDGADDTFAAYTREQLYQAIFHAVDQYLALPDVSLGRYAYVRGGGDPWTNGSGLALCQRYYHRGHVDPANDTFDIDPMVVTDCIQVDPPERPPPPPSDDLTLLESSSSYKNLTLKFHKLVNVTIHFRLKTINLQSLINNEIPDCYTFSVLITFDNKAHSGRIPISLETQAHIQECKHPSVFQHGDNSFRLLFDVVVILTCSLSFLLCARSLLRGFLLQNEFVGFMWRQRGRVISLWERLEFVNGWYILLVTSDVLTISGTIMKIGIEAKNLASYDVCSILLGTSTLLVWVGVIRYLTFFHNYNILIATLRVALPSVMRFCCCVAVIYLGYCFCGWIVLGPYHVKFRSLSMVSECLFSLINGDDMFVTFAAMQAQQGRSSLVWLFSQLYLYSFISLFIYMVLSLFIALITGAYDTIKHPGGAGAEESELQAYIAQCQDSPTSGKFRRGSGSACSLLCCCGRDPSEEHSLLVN
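Calcium fluorescence on an FDSS kinetic reader gave the read-out. Tet-induced TRPML1-DL cells were plated overnight, dye-loaded (Ca8 with quencher, 45-90 min, room temperature, dark), then read 110 s after compound addition, and again 110 s after 4uM final 54-4 (EC80).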
PINK1 expr mod: PINK1 expression modulation; PINK1 immunofluorescence, high-content cytometry, 24 h; Potency, µM (titrated, usually from 76.6 µM), for the others: top-dose activation (PINK1 increase), actives largely listed as activators; AID 624263; 410,000 compounds, 0.2% hits; active = well fitted activation curve with a large enough effect; inconclusive = small, poorly fitted or top-dose-only effect; inactive = flat fitted curve, though single readings scatter; cell line not stated here;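 note: potency is the fitted concentration of half-maximal effect; % of control where 0% means no effect; nearly all actives have a fitted effect of over 65% in size; a mitochondrial uncoupler was the plate control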
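Stable cell line treated 24 h with compounds at 5 concentrations (CCCP controls), then fixed and immunostained for PINK1 plus nuclear and cell stains; PINK1 immunofluorescence quantified by laser-scanning microplate cytometry.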
Menin MLL FP FL: menin-MLL binding inhibition, fluorescein peptide. Fluorescence polarization, fluorescein-MLL peptide displacement from menin. FP activity change, % at 61.4 µM. AID 1766. 290,000 tested, under 10 active; inconclusive = falling polarisation curve, or a change in total fluorescence; inactive = total fluorescence flat and polarisation flat or rising; no compound was filed as active; the % refers to the polarisation; negative = inhibition;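 note: % of control where 0% means no effect; inhibitors lower the polarisation; unlabelled MLL peptide was the positive control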
TRPV1 potentiator: enhances activation of the human vanilloid receptor TRPV1; AID 540277; 320,000 compounds, 0.02% hits; potentiation, % at 8.33 µM; TRPV1-expressing cells, Fluo-8 calcium influx, capsaicin EC20 potentiation; host cell line not named in the record; control for the full effect not named in the record; Q8NER1; active means potentiation above 80%; inconclusive means 30% to 80%; inactive means below 30%; note: 0% is about no effect
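Cells expressing TRPV1 were dye-loaded with Fluo-8 and read kinetically: 10 s baseline, 3 min after compound (agonist portion), then 2 min after EC20 capsaicin (allosteric enhancer portion). Calcium-bound dye fluorescence at 480/520 nm.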
TRPML1 inh: blocks the human TRPML1 channel. TRPML1-inducible cells, Ca2+ dye fluorescence, FDSS; active compounds read low; inhibition of EC80 agonist-evoked calcium signal. 390,000 compounds, 0.02% hits. activity change, negative = inhibition, % (concentration not given with the values). Q9GZU1; in the data active means activity change below about -50%; inconclusive means about -30% to -50%; inactive means above about -30%;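 note: stimulus is agonist 54-4 at its EC80 concentration; % is set by controls: 0 for no effect and ±100 for the full control effect; the text of the record puts the active cut at -80%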
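Calcium fluorescence in TRPML1-DL cells induced overnight with Tet: a 110 s read after compound pin addition, then a 110 s antagonist read after challenge with 54-4 at 4 uM final (EC80).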
Starred values were filed as active, the others as inactive; ? = inconclusive; nt = not tested or not shown; & = joins results of further samples; [ ] = remark or other dose.

Molecule	Sfp PPTase inh	PINK1 expr mod	Menin MLL FP FL	TRPML1 agonist	TRPV1 potentiator	TRPML1 inh	ClpP mod
COc1cc(C2c3cc4c(cc3CC3COC(=O)N32)OCO4)cc(OC)c1OC (centres undefined)	nt	11%	nt	0.3	nt	1	0.6%
Cc1ccc(N(C)S(=O)(=O)c2ccc3c(c2)CC(C)N3C(=O)C2CC2)cc1 (centres undefined)	4%	4.2%	1.8	5.0	-10	69	-2.7%
Cc1cc(C(F)F)n2nc(C(=O)Nc3c(F)cc(F)cc3Br)nc2n1	19%	0.9%	-0.5	0.5	-13	-6	-1.1%
COCCSc1ccccc1C(=O)N1CCC(Cc2ccccc2)CC1	-17%	-1.6%	0.2	0.5	-17	-6	1.1%
O=C(N/N=C/c1ccc[nH]1)c1cccc(Br)c1	-20%	-1.1%	2.2	3.3	-15	17	-1.7%
COc1cc2[nH]c(=S)n(Cc3ccccc3)c(=O)c2cc1OC	?	10%	-0.7	0.0	?	-1	-11%
O=C(CSc1nnc2n(C3CCCCC3)c(=O)c3ccccc3n12)OC1CCCCC1	8%	?	0.2	0.3	27	4	-3.5%
Cc1ccc(NC(=O)C(C)N2C(=O)c3ccccc3S2(=O)=O)cc1Cl (centres undefined)	nt	-0.5%	nt	0.4	12	9	nt
O=C(NNC(=O)C1CCC1)c1ccc(Br)cc1	nt	1.7%	nt	-0.6	-1	2	nt
Cc1ccccc1-c1nnn(Cc2ccc(-c3nn[nH]n3)cc2)n1	-20%	0.0%	5.5	-0.3	27	-5	nt
COc1ccccc1NC(=S)N(CCN1CCOCC1)Cc1ccccc1F	19%	-0.2%	3.2	2.1	-11	11	nt
CC(=O)c1ccc(N2CCN(c3ncnc4c3cnn4-c3cc(Cl)ccc3C)CC2)cc1	nt	11%	nt	0.8	nt	2	-12%
Cc1cc(Br)ccc1NC(=O)CN(C)C(=O)CNC(=O)Cc1ccccc1	nt	1.4%	nt	0.1	10	-14	0.6%
Cc1ccc2[nH]c3c(c2c1)CN(C(C)C)CC3	9%	-0.6%	3.0	0.2	1	-2	nt
Cc1cccc(NC(=O)COC(=O)Cc2cccc(C(F)(F)F)c2)c1C	3%	5.1%	1.5	1.4	-6	-5	0.6%
COc1cccc(OCC(=O)NNC(=O)C(=O)Nc2cccc(C)c2)c1	20%	0.7%	nt	-0.3	20	-22	-1.0%
COc1cc(CN2CCN(Cc3ccc4cc(F)ccc4n3)CC2CCO)cc(OC)c1 (centres undefined)	-15%	0.4%	-3.2	-0.7	3	-11	nt
CCOC(=O)c1cnc(-n2nc(C)cc2C)[nH]c1=O	50µM*	-0.3%	5.5	nt	6	nt	0.2%
Oc1c(Br)cc(Br)cc1C=Nc1ccc2c(c1)OCO2	-4%	-1.3%	?	-0.4	?	55	-0.9%
O=C(NCc1ccco1)c1cccnc1Cl	-5%	-1.4%	2.1	0.2	8	25	2.3%
COc1ccc2[nH]c(=O)c(CN(C(=O)c3cccnc3)c3ccccc3)cc2c1	-2%	1.8%	-0.9	-0.1	6	6	?
COc1ccc(C(=O)Nc2ccc(S(=O)(=O)Nc3nccnc3OC)cc2)cc1	22%	-1.2%	-0.6	-0.6	-3	1	0.3%
O=[N+]([O-])c1ccc(C2=CSC3=NCCN23)cc1	nt	-0.6%	nt	-0.1	nt	42	3.5%
CC(C)(C)NC(=O)CSc1nc(N)c(NC(=O)c2ccccc2F)c(=O)[nH]1	-17%	2.9%	1.5	-0.4	-4	-10	nt
O=C(NCc1ccccc1Cl)C1CCC(=O)N1Cc1ccc(F)cc1 (centres undefined)	7%	-1.4%	-10	-0.2	7	8	-5.2%
COc1ccc(/C=C/C(=O)Nc2nc3n(n2)C(c2ccc(F)cc2)C=C(c2ccccc2)N3)cc1 (centres undefined)	nt	-1.0%	nt	-0.6	nt	29	-11%
COC(=O)c1ccc(N=C2SCC(=O)N2C)cc1	18%	1.4%	2.8	0.2	4	-6	nt
CC(=O)N1CC(=O)N=C1SCC(=O)Nc1nc(C)c(-c2ccccc2)s1	-14%	1.8%	3.9	-1.1	-12	-7	20µM*
Cc1cccc(N2CCN(C(=O)c3ccc(N4CCCC4=O)cc3)CC2)c1C	-4%	-0.7%	-1.5	2.1	5	-1	-1.1%
Cc1c(C)n(Cc2ccc(F)cc2)c2ccc(C(=O)NCCCN3CCOCC3)cc12	-19%	-1.5%	2.1	-0.2	-22	1	-18%
O=[N+]([O-])c1ccccc1S(=O)(=O)N1CCN(C2CCN(Cc3ccccc3)CC2)CC1	-2%	0.6%	nt	-0.1	-9	18	-1.6%
CC(=O)C1=CCC(c2ccccc2)N(S(=O)(=O)c2ccccc2C)C1 (centres undefined)	nt	0.4%&0.0%	nt	-0.2&0.1	nt	-2	-2.5%&0.2%
CC(Oc1ccc2c3c(c(=O)oc2c1)CCC3)C(=O)NCc1ccccn1 (centres undefined)	0%	4.4%	nt	-0.5	-2	-5	4.0%
Oc1ccc2cccnc2c1	0%	-0.3%	?	0.1	11	4	0.5%
O=C(Nc1nnc(SCc2ccccc2F)s1)c1ccco1	9%	0.9%	4.1	0.0	5	-10	-0.7%
CC(C)(C)c1ccc(/C=N/OCC(=O)NCc2ccccc2)cc1	-4%	17%	3.1	1.6	-10	9	0.3%
CCc1cc2c3c(c1)/C(=C1/SC(N)=NC1=O)C(=O)N3C(C)(C)C=C2C	1%	nt	-2.3	-0.5	?	5	-4.0%
COc1cccc(NC(=S)NNC(=O)Cn2nc(C(F)(F)F)cc2C)c1	16%	-1.4%	5.9	0.0	0	4	1.5%
Cc1cccc(-n2ncc(C#N)c2-n2cccc2)c1	-2%	3.3%[38.3 µM]	4.1	1.8	15	-11	4.1%
COc1ccc2oc(C(=O)Nc3ccccn3)c(C)c2c1	-7%	-0.5%	7.9	-0.3	-8	11	-26%
Cc1cc(-c2nc3ncccc3o2)ccc1NC(=O)c1ccc(Cl)cc1	nt	-0.1%	nt	-0.3	nt	-4	-6.3%
Cc1ccc(C)c(N2CCN(C(=O)C3CCN(S(=O)(=O)c4cccc5nsnc45)CC3)CC2)c1	-2%	0.1%	-2.1	-0.2	nt	-10	1.9%
NS(=O)(=O)c1ccc(CNC(=O)CSc2nc3ccc(Cl)cc3[nH]2)cc1	6%	-0.5%	3.5	-0.5	-1	-10	-3.6%
CC(C)(C)OC(=O)C[C@H]1C/C=C\C[C@H](CC(=O)NCCO)C(=O)NCCOC1=O	nt	-0.9%	nt	-0.1	nt	29	-1.1%
CCCn1c(O)c(N=N)c2ccccc21	5%	1.6%	-2.8	-0.1	-1	23	1.0%
CCOC(=O)c1ccc(NC(=S)N(CCCN2CCCCC2)Cc2ccco2)cc1	9%	-0.5%	-1.6	1.1	5	-5	-2.4%
CCc1nc(NC2CCCCC2)c(C#N)c2c1COC(C)(C)C2	-9%	8.0%	3.3	5.8	-1	-5	1.1%
COC(=O)[C@H](CCSC)NC(=O)Nc1ccc(C(C)=O)cc1	1%	1.9%[38.3 µM]	-3.2	-0.1	-1	13	0.9%
Cc1ccc2nc(-c3ccc(C)o3)c(Nc3ccc(Cl)cc3)n2c1	nt	2.1%	nt	-0.7	nt	nt	14µM*
COc1ccccc1Cc1nc2ccccc2nc1SCC(=O)NCc1ccccc1Cl	nt	-1.7%	nt	2.0	nt	7	-4.5%

Next part
Molecule	Sfp PPTase inh	PINK1 expr mod	Menin MLL FP FL	TRPML1 agonist	TRPV1 potentiator	TRPML1 inh	ClpP mod
OCCCCNCc1cc(Br)ccc1OCc1ccccc1F	13%	3.8%	-6.9	0.8	1	7	0.6%
Cc1ccc(C)c(Nc2nn3c(=O)c4ccc(C(=O)N(C)Cc5ccccc5)cc4nc3s2)c1	nt	-1.1%	nt	1.2	nt	-6	?
Cc1cc(NC(=O)c2cccnc2Cl)ccc1NC(=O)c1cc2ccccc2o1	-1%	10%	0.3	-0.2	29	-10	nt
Cc1ccccc1NC(=O)Cc1nc(COC(=O)COc2ccc(C(C)(C)C)cc2)cs1	nt	0.2%	nt	-1.5	1	-2	-2.6%
Cc1cc(C(=O)OCC(=O)c2ccc(Br)s2)c(C)o1	-10%	nt	6.2	nt	-9	nt	nt
CCc1cccc2c(N=O)c(O)[nH]c12	7%	-2.8%	1.4	2.2	25	0	-2.7%
C=CCOc1ccc(CN(C)CC(O)COc2cccc3ccccc23)cc1 (centres undefined)	-12%	0.4%	-2.6	-0.3	-18	-7	nt
CC1CCc2c(cc(-c3ccccc3)n2-c2ccc(C(=O)NC(C)C)cc2)C1 (centres undefined)	nt	-1.2%	nt	1.3	nt	13	-1.2%
Cn1c(=O)c2c(ncn2CC(=O)N2CCN(S(=O)(=O)c3ccc(Cl)cc3)CC2)n(C)c1=O	7%	2.4%	-2.1	0.5	14	5	1.6%
COc1ccc(N(CC(=O)NCCSC2CCCCC2)S(=O)(=O)c2ccc(C)cc2)cc1	4%	4.0%	nt	3.2	-5	6	-5.0%
Cc1ccc(NC(=O)CN2C(=O)C3CCCCN3C(=O)c3ccccc32)cc1 (centres undefined)	-13%	-1.0%	0.2	-0.3	13	-4	-4.9%
